Tgondii IFNg: blocks Toxoplasma gondii growth in the presence of IFN-gamma; Toxoplasma gondii growth in IFN-gamma-treated host cells; hits give low values; reference of the scale not given here; activity change, negative = inhibition, %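 (about 20 µM by stock and volumes)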; 69,000 tested, 3.8% active;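 active = below -70%; inconclusive = fit judged invalid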;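 note: host cells are HeLa cells infected with Toxoplasma gondii; parasite growth read as luciferase light; one replicate is shown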
Starred values were filed as active, the others as inactive; i = inactive; ? = inconclusive.

Compound | Tgondii IFNg
C[C@@H]1CN([C@@H](C)CO)C(=O)c2cc(-c3ccncc3)cnc2O[C@H]1CN(C)C(=O)CN1CCOCC1 | 109
Cc1ccc2[nH]cc(-c3nccc(C(F)(F)F)n3)c2c1 | -12
COCc1ncc(-c2nccn2-c2ccc(-c3ccn[nH]3)cc2)cn1 | 7
CCc1cc(=O)[nH]c(NC2CCN(C(=O)N3c4ccccc4Sc4ccccc43)CC2)n1 | -117*
O=C(C(O)c1ccc(Cl)cc1)N1CCC(O)(CO)CC1 (stereo not given) | 81
COc1ccc(NC(=O)N2CCC3(CC2)CN(C(=O)CN2CCOCC2)[C@H](CO)c2[nH]c4cc(OC)ccc4c23)cc1 | 282
Cn1cc(C(=O)N2CC[C@@H]3CNS(=O)(=O)[C@H]3CC2)c2ccccc21 | -28
O=C(c1ccc(Cl)cc1)C1CCCN(Cc2ccc(Oc3ncccn3)cc2)C1 (stereo not given) | -27
Cn1cnc(S(=O)(=O)N2CCC3NC(=O)CC32)c1 (stereo not given) | 2
CC1(C)CC(=O)c2c(nc3ccccc3c2N)C1 | 23
COc1ccc(S(=O)(=O)Nc2ccncc2)cc1N(C)S(C)(=O)=O | 45
CS(=O)(=O)N1Cc2nccn2CC(Cn2ncccc2=O)C1 (stereo not given) | 4
CCNc1ncc(C(=O)NC(C)Cn2nc(C)cc2C)cn1 (stereo not given) | -1
CCOCC(=O)N1Cc2ncn(C)c2C(COCc2cccc(C)n2)C1 (stereo not given) | -6
Cc1cc(C)nc(N2CCC(CNC(=O)CCCc3c[nH]c4ccccc34)CC2)n1 | -9
CCn1c(C2CCN(S(=O)(=O)c3sccc3C)CC2)nn(C)c1=O | 97
CNC(=O)C[C@H]1CC[C@H]2[C@@H](COC[C@@H](O)CN2Cc2ccccc2F)O1 | -18
CN(CCNc1nc(-c2ccccc2)nc2c1CCNC2)S(C)(=O)=O | -18
COc1ccccc1OC(C)C(=O)NCC1CCC(c2[nH]ncc2-c2ccncc2C)CC1 (stereo not given) | -36
Cc1cccc(CN2CCc3nc4cc(C(C)(C)C)[nH]n4c(=O)c3C2)n1 | -10
OCc1cc(-c2ccc(-c3ccn[nH]3)cc2)ccn1 | 58
Cc1ccc2cc(CNc3cc(Cl)ccc3Cl)c(Cl)nc2c1 | 52
CC(=O)Nc1ccc(S(=O)(=O)N2CCC3(CC2)Nc2cc(F)ccc2-n2cccc23)cc1 | 16
COc1cc(O)cc([C@@H]2CC(=O)c3c(O)cc(O[C@@H]4O[C@H](CO)[C@@H](O)[C@H](O)[C@H]4O[C@@H]4O[C@@H](C)[C@H](O)[C@@H](O)[C@H]4O)cc3O2)c1 | 15
Cc1ccccc1-c1cnc2c(c1)C(=O)N([C@H](C)CO)C[C@@H](C)[C@@H](CN(C)Cc1ccccc1F)O2 | -45
CCCCN(Cc1ccco1)C(=O)c1cc(F)ccc1OC | -1
Cc1cc(C)n(C(C)CC(=O)Nc2cccc(OC(C)C)c2)n1 (stereo not given) | 9
CCOC(=O)c1cnc(SCc2cccc(Cl)c2)nc1N | 56
CC1(C)C=Cc2cc(-c3noc(-c4cccc(C(F)(F)F)c4)n3)ccc2O1 | 64
CS(=O)(=O)N1CCC2(CC1)CC(c1cccnc1)C(=O)N2 (stereo not given) | -6
CN1CC[C@]2(CCC[C@H](CNC(=O)c3ccccc3)O2)C1 | -33
Cc1ccc(-c2cc3c(=O)n(Cc4nc(-c5ccc(Cl)cc5)oc4C)ccn3n2)cc1 | -19
CC(C)C12CN3CC(C(C)C)(CN(C1)C3c1ccccc1)C2O (stereo not given) | 12
O=C(NCCCNC(=O)c1ccco1)c1cnccn1 | 7
O=C1CC(c2ccccc2)Sc2ccccc2N1 (stereo not given) | -25
NNC(=S)NC1CC2CC1C1C=CCC21 (stereo not given) | 35
Cc1nn(C)cc1NC(=O)C[C@@H]1CC[C@H]2[C@@H](COc3ccc(NC(=O)C4CCOCC4)cc3C(=O)N2C)O1 | 10
Cc1cc(C(=O)Nc2ccc3c(c2)C(=O)N(C)[C@@H]2CC[C@@H](CC(=O)NCc4ccc(-c5ccccc5)cc4)O[C@H]2CO3)no1 | -68
CCN(Cc1noc(CC(C)C)n1)C(=O)c1ccc(NC(C)=O)cc1 | 3
CCCCC(=O)Nc1cc(NC(=O)c2ccncc2Cl)ccc1OC | -30
CC(C)N(C(=O)CN(C#N)c1nc(N(C)C)nc(N(C)C)n1)c1ccccc1 | 68
COC(=O)c1cc(C)nc2c1c(=O)n(CC(=O)c1c(C)n(C)c3ccccc13)c(=O)n2C | 5
COc1ccc2[nH]c(=O)c(CN3CCCOC(Cn4cccn4)C3)cc2c1 (stereo not given) | 1
FC(F)(F)c1ccc(Oc2ncnc3c(-c4ccccc4)c(C(F)(F)F)sc23)cc1 | -71*
OC(Cn1ccnc1-c1ccc(-c2ccccc2Cl)o1)c1cccnc1 (stereo not given) | ?
CCS(=O)(=O)N1CCC2(CC1)CN(c1cncnc1)C(=O)CO2 | -41
C=CCn1c(=O)c(C(=O)Nc2nc(C)cc(C)n2)c(O)c2ccccc21 | 59
O=C(NCc1cccc(Cl)c1)c1c(O)c2cccnc2n(-c2cccc(F)c2)c1=O | 72
Cc1cc(C)n(CCC(=O)N[C@@H]2C[C@@H]3C[C@H]([C@H]2C)C3(C)C)c(=O)n1 | -7
Cc1ccc2c(c1C)-n1cccc1C1(CCN(C(=O)c3ccccc3Br)CC1)N2 | 61
CN1CC2(CCCN(C(=O)c3ccc(-c4ccn[nH]4)cc3)C2)OC1=O (stereo not given) | 16
O=C1CCCN1[C@@H]1CCO[C@]2(CCN(c3ncc(F)cn3)C2)C1 | -7
O=S(=O)(NC1CCC12CCN(Cc1ccoc1)CC2)c1ccccc1 (stereo not given) | -9
C[C@@H]1CCCCO[C@H](CN(C)C(=O)NC2CCCCC2)[C@H](C)CN([C@H](C)CO)C(=O)c2cc(N(C)C)ccc2O1 | 13
Cc1nnc(SCCC(=O)N(Cc2sccc2C)C2CCCC2)s1 | 7
CNC[C@@H]1Oc2c(N)cccc2C(=O)N([C@H](C)CO)C[C@@H]1C | 10

Going on with the list.
Compound | Tgondii IFNg
CC(C)NC(=O)CC1CC2(CCN(S(=O)(=O)C3CC3)CC2)Oc2ccccc21 (stereo not given) | 1
COc1cccc(NC(=O)N2C[C@@H](O)COC[C@@H]3O[C@H](CC(=O)N(C)C)CC[C@H]32)c1 | 6
Cc1c(NC(=O)CNS(=O)(=O)c2cccs2)n[nH]c1-c1cccs1 | 28
CCOc1ccccc1CN(CC)C(=O)c1c(C)cc(C)n(CC)c1=O | -2
C[C@@H]1CCCCO[C@H](CN(C)CC2CC2)[C@H](C)CN([C@H](C)CO)C(=O)c2cc(NC(=O)c3ccccc3)ccc2O1 | 92
CN1CCN(C(=O)c2cc3c(c(-c4cccc(-c5cccnc5)c4)n2)[C@H](CCO)N(C(=O)CC2CC2)C3)CC1 | -44
C[C@H](CO)N1C[C@H](C)[C@H](CN(C)CC2CCCCC2)OCCCC[C@H](C)Oc2ccc(NS(C)(=O)=O)cc2C1=O | 57
COC(=O)[C@@H]1C[C@@H](N(C)C)CN1C(=O)[C@@]12CC[C@@](C)(OC1=O)C2(C)C | -1

Part of the list above, as labelled records.
COc1ccc(S(=O)(=O)Nc2ccncc2)cc1N(C)S(C)(=O)=O
  Tgondii IFNg: 45
Cc1ccc2c(c1C)-n1cccc1C1(CCN(C(=O)c3ccccc3Br)CC1)N2
  Tgondii IFNg: 61
CC(C)C12CN3CC(C(C)C)(CN(C1)C3c1ccccc1)C2O (stereo not given)
  Tgondii IFNg: 12
CN1CCN(C(=O)c2cc3c(c(-c4cccc(-c5cccnc5)c4)n2)[C@H](CCO)N(C(=O)CC2CC2)C3)CC1
  Tgondii IFNg: -44

Continued.
Compound | Tgondii IFNg
COc1ccc(-c2nc(-c3cc4cc(Cl)ccc4oc3=O)cs2)cc1 | -52
COc1cccc(N2CC3(CCN(c4ccc(C)nn4)C3)CC2=O)c1 (stereo not given) | 0
COc1cccc(NC(=O)Nc2ccc3c(c2)C(=O)N(C)C[C@@H](OC)[C@@H](C)CN(CC2CC2)[C@H](C)CO3)c1 | 37
CCCc1c(-c2ccccc2)nc2[nH]c3ccccc3n2c1=O | 171
Cc1ccc(OCC(=O)Nc2cncc(-c3nc4ccccc4o3)c2)cc1 | 2
COc1cc2c(cc1NC(=O)c1ccco1)CCCC2 | 100
CCCC(=O)N1CC2(C1)CN(C(=O)Nc1cccc(F)c1)[C@H](CO)c1c2c2ccc(OC)cc2n1C | ?
Cn1ccnc1CN1CCC2(COCCN(Cc3cccs3)C2)C1 (stereo not given) | -3
COc1ccc(CC(=O)NCCc2csc(-c3cccc(C)c3)n2)cc1 | i
Cc1ccc2[nH]c(C(=O)NCC3CN(S(C)(=O)=O)CCO3)cc2c1 (stereo not given) | 3
CCS(=O)(=O)NCC[C@H]1CC[C@H](NC(=O)Nc2cc(Cl)cc(Cl)c2)[C@@H](CO)O1 | -48
CNC(=O)[C@@H]1CC2CN(S(=O)(=O)c3ccc(C)c(F)c3)CC2N1C (stereo not given in full) | -93*
Cc1cc(NC(=O)c2ccc3c(c2)C(=O)N(CC2CCCO2)C3=O)no1 (stereo not given) | -7
CN(C)C(=O)Cn1ccc(C2CCNc3ccccc32)n1 (stereo not given) | -42
Cc1c(Cl)cccc1NC(=O)Cn1c(=O)cc(C(=O)N2CCOCC2)c2ccccc21 | 9
COc1ccc(C(=O)N2CCCC(O)(CN(C)C)C2)c(OC)n1 (stereo not given) | 2
COc1ccc(Cl)cc1NC(=O)N1CCC2(CC1)NC(=O)c1cc(C)ccc1N2C | -4
Cc1nc2c(c(=O)[nH]1)CN(Cc1cccn1-c1cccnc1)CC2 | 10
COc1ccc(CN2C[C@H]3CN(c4ccc(C#N)cn4)C[C@H]3C2=O)cc1 | 5
O=C(O)[C@H]1C[C@H](C(=O)NCc2ccccn2)CN(C/C=C/c2ccccc2)C1 | 0
CC(=O)c1ccc(CN(Cc2cnn(C)c2)C2CC2)cc1 | -2
CCOCC1COCCC12CCN(C(=O)CCc1ccccc1)CC2 (stereo not given) | -1
Cc1ccc(CN2CC[C@@H](OCc3ccccn3)[C@@H]3OCC[C@H]32)cc1 | 3
CN1C(=O)c2cc(NC(=O)c3ccc(C(F)(F)F)cc3)ccc2OC[C@H]2O[C@@H](CC(=O)NCc3ccc4c(c3)OCO4)CC[C@H]21 | -28
CN(C)CC(=O)N1CC2CN(C(=O)Cc3ccc(Cl)cc3)CC21 (stereo not given) | -17
CCc1ccc2oc(=O)cc(CN(C)CC(C)N3CCOCC3)c2c1 (stereo not given) | -1
CN(CCNC(=O)C1(c2cccs2)CC1(C)C)S(C)(=O)=O (stereo not given) | 7
Cc1cnc(NCCc2nn[nH]n2)nc1N(C)C | -3
O=C(NCC[C@@H]1CC[C@H](NS(=O)(=O)c2ccc(F)cc2)[C@H](CO)O1)c1ccc2c(c1)OCO2 | 13
CCN1CCN(C(=O)c2c(Cl)ccc(F)c2F)CC1 | 25
COc1ccccc1NC(=O)N1CCCCN2[C@H](CO)[C@H](c3ccc(-c4cccc(C#N)c4)cc3)[C@@H]2C1 | -48
O=C(Nc1ccc2c(c1)CCC2)C1CC(=O)N(CCc2c[nH]c3ccc(F)cc23)C1 (stereo not given) | -44
CCc1ccc(Nc2nc(C(=O)NC3CC3)nc3ccccc23)cc1 | -54
COc1ccc(CCNC(=O)c2c(O)c3ccccc3[nH]c2=O)cc1OC | 48
CS(=O)(=O)N1[C@@H](CO)[C@@H](c2ccccc2)C12CN(Cc1cc(F)ccc1F)C2 | 55
O=C(NCc1ccc2c(c1)OCO2)c1c(O)c2cccnc2n(-c2ccccc2)c1=O | 182
Cc1nn(C)cc1C(C)NC(=O)CC1CCN(Cc2cccc(C(F)(F)F)c2)CC1 (stereo not given) | 0
Cc1cc(C(F)(F)F)nc(SCCNC(=O)c2ccccc2F)n1 | -7
COc1ccc(NC(=O)c2cncc(NS(=O)(=O)c3ccc(Br)cc3)c2)cc1 | 24
Cc1cc(CNC(=O)c2occc2C)c2[nH]c(C)c(C)c2c1 | 24
O=C1NCC2(CCCN(C(=O)c3cc4ccccc4s3)C2)O1 (stereo not given) | 2
C/C=C/c1ccccc1[C@@H]1[C@H](C#N)N(C(=O)Cc2ccccn2)[C@H]1CO | 16
O=C(C[C@@H]1C=C[C@@H](NC(=O)Nc2ccccc2F)[C@@H](CO)O1)NCc1ccc(-c2ccccc2)cc1 | -47
COc1ccc(CNC(=O)Nc2ccc(-c3nc(-c4ccc(C)cc4C)co3)cc2)cc1 | 32
O=C(c1cn2c(n1)COCC2)N1CCN(c2ccccn2)CC1 | 14
OC[C@@H]1[C@H](c2ccc(-c3cccc(F)c3)cc2)[C@H]2CN(Cc3cncnc3)CCCCN12 | -16
CN1CCC2(CCCN(C(=O)COc3ccc4c(c3)OCO4)CC2)CC1 | 2
CN(C)C1CCN(Cc2cc3n(n2)CCCNC3)C1 (stereo not given) | 10

Looked up above:
Under Tgondii IFNg, CN1CCC2(CCCN(C(=O)COc3ccc4c(c3)OCO4)CC2)CC1 has 2
Under Tgondii IFNg, C/C=C/c1ccccc1[C@@H]1[C@H](C#N)N(C(=O)Cc2ccccn2)[C@H]1CO has 16

(next part)
Compound | Tgondii IFNg
Cn1cnc2c(-c3cccnc3)nc(C3CCN(Cc4ccccn4)CC3)cc21 | -15
CCCC(=O)Nc1ccc(CC(=O)NCc2n[nH]c3c2CCC3)cc1 | 5
O=C(c1cnc(Nc2ccccc2)nc1)N1CCOC2(CNCCOC2)C1 (stereo not given) | -3
CNC(=O)CC1CCN(C(=O)c2ccc3nsnc3c2)CC1 | -66
Cn1c(C(=O)N2CCCC3(CNC(=O)O3)C2)cc2c(Cl)cccc21 (stereo not given) | ?
CC(C)CN1CC2(CCN(C(=O)c3ccc4[nH]ccc4c3)CC2)C2(CCN(C)C2=O)C1 (stereo not given) | 88

From PubChem

This is a subset, so the mix of outcomes need not match the whole.
